ID4 binder – binders of human ID4 protein; P47928; small molecule microarray, Flag-ID4 binding, fluorescence F/B; calls only; actives 1.2% (n = 31,000);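 active means spot signal over background at p below 0.07 in all four prints; compounds were printed on slides so no solution concentration is given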;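 further: a binder raises fluorescence above local background on the spot; about 2 pmol printed per array spot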
Target sequence (P47928 whole entry, looked up): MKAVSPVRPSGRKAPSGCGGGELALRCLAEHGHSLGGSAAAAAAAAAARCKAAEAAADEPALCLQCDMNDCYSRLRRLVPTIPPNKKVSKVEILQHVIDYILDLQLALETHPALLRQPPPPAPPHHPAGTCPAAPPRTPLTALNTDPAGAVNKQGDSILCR
Calls only; i = inactive. Not all compounds are listed, so the mix of outcomes need not match the whole.

SMILES,ID4 binder
C[C@@H]1CN([C@H](C)CO)C(=O)c2cc(C#Cc3ccc(F)cc3)cnc2O[C@H]1CN(C)C,i
COc1cccc(NC(=O)N(C)C[C@@H]2Oc3ncc(C4=CCCCC4)cc3C(=O)N([C@@H](C)CO)C[C@H]2C)c1,i
COC(=O)c1ccccc1NC(=O)CN(c1cccc2ccccc12)S(C)(=O)=O,i
COCC(=O)N(C)C[C@H]1Oc2ncc(C3=CCCC3)cc2C(=O)N([C@@H](C)CO)C[C@@H]1C,i
Cc1ccc2nc(-c3ccc(Cl)c(NC(=O)COc4ccc(Br)cc4)c3)oc2c1,i
CS(=O)(=O)N(CC(=O)Nc1ccc(F)cc1F)c1cc(Cl)c(Cl)cc1Cl,i
NC1CCN(c2cccc(Cl)n2)CC1,i
Cc1ccc(N(CC(=O)Nc2ccc(F)c(Cl)c2)S(C)(=O)=O)cc1,i

(cont.)
SMILES,ID4 binder
C[C@H](CO)N1C[C@H](C)[C@@H](CN(C)C)Oc2ncc(-c3ccncc3)cc2C1=O,i
CN1CCN(C(=O)C[C@H]2C[C@@H]3c4cc(NC(=O)Nc5ccc(C(F)(F)F)cc5)ccc4O[C@@H]3[C@@H](CO)O2)CC1,i
O=c1ccc2ccc(O)cc2o1,i
C[C@@H]1CN([C@H](C)CO)C(=O)c2cc(-c3ccc(F)cc3)cnc2O[C@H]1CN(C)CC1CCCCC1,i
O=C(C[C@@H]1C=C[C@H](NC(=O)Nc2cc(F)ccc2F)[C@@H](CO)O1)NCCCN1CCOCC1,i
COc1ccccc1CNC(=O)C[C@H]1C[C@@H]2c3cc(N(C)C)ccc3O[C@@H]2[C@H](CO)O1,i
CC(C)CC1NC(=O)C2CCCN2C1=O (stereo not drawn),i
CCc1cc(C(N)=S)ccn1,i

Going on with the list:
SMILES,ID4 binder
O=c1[nH]nc(-c2ccc(NCc3cccnc3)c([N+](=O)[O-])c2)c2ccccc12,i
CC(=O)Nc1ccc(OCC(=O)Nc2ccc(Cl)c(Cl)c2)cc1,i
C[C@@H]1CN([C@@H](C)CO)C(=O)c2c(c3ccccc3n2C)-c2ccccc2CO[C@@H]1CN(C)S(=O)(=O)CC(F)(F)F,i
CO[C@@H]1CN(C)C(=O)c2cc(NC(=O)Cc3ccccc3)ccc2OC[C@@H](C)N(C)C[C@H]1C,i
Cc1cc(N(CC(=O)Nc2cc(Cl)ccc2Cl)S(C)(=O)=O)ccc1Br,i
CS(=O)(=O)Nc1ccc2c(c1)[C@H]1C[C@H](CC(=O)NCc3ccc(Cl)cc3)O[C@H](CO)[C@H]1O2,i
COC(=O)c1ccccc1NC(=O)CN(c1ccc(Br)c(C)c1)S(C)(=O)=O,i
Cc1ccccc1-c1cnc2c(c1)C(=O)N([C@H](C)CO)C[C@H](C)[C@H](CN(C)C(=O)c1ccccc1)O2,i

Next results follow.
SMILES,ID4 binder
Cc1ccc(-n2c(N)cc(=O)nc2SCC(=O)Nc2cccc(C(F)(F)F)c2)cc1,i
O=C(CC1NCCNC1=O)Nc1cccc(Cl)c1Cl (stereo not drawn),i
COc1cc(NS(=O)(=O)c2ccc(NC(=O)c3csc(C)c3)cc2)nc(OC)n1,i
COC(=O)c1cc(OC)c(OC)cc1NC(=O)COc1cccc(C)c1C,i
CN(C(=O)c1ccn[nH]1)C1CC(C)(C)N(C)C(C)(C)C1,i
O=C(O)c1cccc(COc2ccc(CO)cc2Br)c1,i
O=C1O[C@H](c2ccccc2)[C@H](c2ccccc2)N2[C@H]1[C@@H](C(=O)O)[C@]1(C(=O)Nc3ccccc31)[C@H]2c1ccc(O)cc1,i
COc1ccccc1-c1cnc2c(c1)C(=O)N([C@H](C)CO)C[C@@H](C)[C@@H](CN(C)C)O2,i

Other entries.
SMILES,ID4 binder
O=S(=O)(Nc1nccs1)c1ccc(NS(=O)(=O)c2cc(Cl)ccc2Cl)cc1,i
Cc1ccc(NC(=O)CC2C(=O)NCCN2C(=S)Nc2ccccc2)c(C)c1 (stereo not drawn),i
CC1CCc2c(sc(NC(=O)c3cc(-c4cccnc4)nc4ccc(Cl)cc34)c2C(N)=O)C1 (stereo not drawn),i
CO[C@H](CN(C)S(=O)(=O)c1cn(C)cn1)[C@H](C)CN(C(=O)Nc1ccc(C(F)(F)F)cc1)[C@@H](C)CO,i
C[C@H]1CN([C@@H](C)CO)S(=O)(=O)c2ccc(C#Cc3ccncc3)cc2O[C@H]1CN(C)C(=O)C1CCCCC1,i
O=C(CSc1nnnn1-c1ccc(O)cc1)Nc1ccc(N2CCOCC2)c(Cl)c1,i
Cc1cccc(C)c1NC(=O)CSc1nnnn1-c1ccc(I)cc1,i
C/C=C/c1cnc2c(c1)C(=O)N([C@@H](C)CO)C[C@H](C)[C@@H](CN(C)Cc1ccc3c(c1)OCO3)O2,i

An excerpt from above in order of length of the SMILES, largest number first.
SMILES,ID4 binder
C[C@H]1CN([C@@H](C)CO)S(=O)(=O)c2ccc(C#Cc3ccncc3)cc2O[C@H]1CN(C)C(=O)C1CCCCC1,i
C/C=C/c1cnc2c(c1)C(=O)N([C@@H](C)CO)C[C@H](C)[C@@H](CN(C)Cc1ccc3c(c1)OCO3)O2,i
COc1ccccc1-c1cnc2c(c1)C(=O)N([C@H](C)CO)C[C@@H](C)[C@@H](CN(C)C)O2,i
O=S(=O)(Nc1nccs1)c1ccc(NS(=O)(=O)c2cc(Cl)ccc2Cl)cc1,i
Cc1ccc(NC(=O)CC2C(=O)NCCN2C(=S)Nc2ccccc2)c(C)c1 (stereo not drawn),i
Cc1cccc(C)c1NC(=O)CSc1nnnn1-c1ccc(I)cc1,i

Reformatted: results already given
Compound: Cc1ccc(NC(=O)CC2C(=O)NCCN2C(=S)Nc2ccccc2)c(C)c1 (stereo not drawn)
  ID4 binder = i

Compound: CC1CCc2c(sc(NC(=O)c3cc(-c4cccnc4)nc4ccc(Cl)cc34)c2C(N)=O)C1 (stereo not drawn)
  ID4 binder = i

Compound: CO[C@H](CN(C)S(=O)(=O)c1cn(C)cn1)[C@H](C)CN(C(=O)Nc1ccc(C(F)(F)F)cc1)[C@@H](C)CO
  ID4 binder = i

Going on with the list.
SMILES	ID4 binder
CCCC#Cc1ccc2c(c1)O[C@H](CN(C)S(=O)(=O)c1cccc(OC)c1)[C@@H](C)CN([C@H](C)CO)S2(=O)=O	i
Nc1ncnc(Nc2ccccn2)c1[N+](=O)[O-]	i
COc1ccccc1NC(=O)Cn1nnc(-c2ccc(C(F)(F)F)cc2)n1	i
O=C(C[C@H]1CC[C@H](NC(=O)c2cnccn2)[C@@H](CO)O1)NCc1ccccc1F	i
COc1cccc(N(CC(=O)Nc2ccc(F)cc2F)S(C)(=O)=O)c1	i
COCCNC(=O)C[C@H]1C[C@H]2c3cc(NC(=O)c4ccc5c(c4)OCO5)ccc3O[C@H]2[C@H](CO)O1	i
N#C/C(=C\c1cc(Cl)cc(Cl)c1)c1cccnc1	i
O=C(C[C@@H]1C=C[C@H](NC(=O)c2ccccc2)[C@H](CO)O1)Nc1ccc(-c2ccccc2)cc1	i
O=C(NCc1ccc(-c2csnn2)cc1)c1cc(Cl)cc(Cl)c1	i
CC(CCC(=O)Nc1ccccc1Cl)C(=O)O (stereo not drawn)	i
COc1ccc(Cl)cc1N(CC(=O)Nc1cc(Cl)cc(Cl)c1)S(C)(=O)=O	i
OC(COc1ccc(Cl)cc1)Cn1cnc(-c2ccccc2)c1 (stereo not drawn)	i

Further records follow:
SMILES	ID4 binder
C[C@H](CO)N1C[C@H](C)[C@@H](CN(C)C(=O)CN(C)C)Oc2ncc(C#CCC3CCCC3)cc2C1=O	i
COc1ccccc1N(CC(=O)Nc1ccccc1Cl)S(C)(=O)=O	i
C[C@@H](NC(=O)C[C@@H]1C=C[C@H](NC(=O)C2CC2)[C@H](CO)O1)c1ccccc1	i
CC(NS(=O)(=O)c1ccc(F)cc1)C(=O)Nc1ccc2c(c1)OCCO2 (stereo not drawn)	i
C[C@H](CO)N1C[C@H](C)[C@H](CN(C)CC2CC2)Oc2cc(C3=CCCCC3)ccc2S1(=O)=O	i
C[C@H](CO)N1C[C@H](C)[C@@H](CN(C)Cc2ccccc2)Oc2ncc(-c3cccc(F)c3)cc2C1=O	i
COc1ccccc1OCC(=O)Nc1ccccc1C(=O)Nc1cccc(C(=O)O)c1	i
CC(=O)c1cccc(N(CC(=O)Nc2cc(C)cc(C)c2)S(C)(=O)=O)c1	i
O=C(C[C@@H]1C=C[C@H](NC(=O)C2CCC2)[C@@H](CO)O1)NCc1ccccc1Cl	i
Cc1sc(NC(=O)c2ccco2)c(C(=O)NCc2cccnc2)c1C	i
O=C(CSc1nnc(-c2cccnc2)o1)c1ccc2ccccc2c1	i
COc1cc([N+](=O)[O-])ccc1NC(=S)NCc1cn(-c2ccccc2)nc1-c1ccccc1	i

New compounds follow
SMILES	ID4 binder
COc1ccccc1NC(=O)N(C)C[C@@H]1Oc2ncc(C#CCC(C)C)cc2C(=O)N([C@@H](C)CO)C[C@H]1C	i
C[C@@H]1CN([C@@H](C)CO)S(=O)(=O)c2ccc(C#CCC3CCCC3)cc2O[C@@H]1CN(C)C(=O)CN(C)C	i
O=C(CSc1ncnc2scc(-c3ccc(Br)cc3)c12)Nc1ccccc1	i
CC(C)C#Cc1ccc2c(c1)O[C@@H](CN(C)Cc1ccccc1)[C@H](C)CN([C@H](C)CO)S2(=O)=O	i
COc1cc(OC)cc(OC)c1	i
C[C@H]1CN([C@@H](C)CO)C(=O)c2cc(C#CCN(C)C)cnc2O[C@@H]1CN(C)Cc1ccccc1F	i
Cc1ccc2ccc(C(Nc3ccccn3)c3ccc(Cl)cc3)c(O)c2n1 (stereo not drawn)	i
O=C(C[C@H]1C[C@@H]2c3cc(NC(=O)C4CCC4)ccc3O[C@@H]2[C@@H](CO)O1)NCc1ccc(Cl)cc1	i
COc1ccc(-n2nc3c(c2NC(=O)c2ccccc2C(F)(F)F)CSC3)cc1	i
CS(=O)(=O)N(CC(=O)Nc1ccc(F)c(Cl)c1)C1CCCCC1	i
O=C(CC1c2ccccc2Oc2ccccc21)NCCOc1ccccc1Cl	i
CC(C)NC(=O)N(C)C[C@@H]1Oc2ncc(C#CC3CC3)cc2C(=O)N([C@@H](C)CO)C[C@H]1C	i

(more compounds)
SMILES	ID4 binder
CNC[C@H]1Oc2cc(C#Cc3ccc(F)cc3)ccc2S(=O)(=O)N([C@@H](C)CO)C[C@@H]1C	i
Cc1ccccc1-c1cnc2c(c1)C(=O)N([C@@H](C)CO)C[C@@H](C)[C@H](CN(C)Cc1cccnc1)O2	i
C[C@H](O)C#Cc1ccc2c(c1)O[C@@H](CN(C)C(=O)CN(C)C)[C@@H](C)CN([C@@H](C)CO)S2(=O)=O	i
C[C@H](CO)N1C[C@H](C)[C@@H](CN(C)CC2CC2)Oc2ccc(NC(=O)C3CC3)cc2CC1=O	i
COc1cc2c(cc1NC(=O)c1nc3ncccn3n1)oc1ccccc12	i
COCCNc1nc2c(c(=O)n(C)c(=O)n2C)n1Cc1ccc(Cl)cc1Cl	i
Cn1cnc(S(=O)(=O)N[C@@H]2CC[C@H](CC(=O)N3CCN(c4ccccc4)CC3)O[C@@H]2CO)c1	i
Cc1cccc(N(C)S(=O)(=O)c2ccc3c(c2)CCC(=O)N3)c1	i
CC(=O)N(C)C[C@@H]1Oc2ncc(C#CCC3CCCC3)cc2C(=O)N([C@H](C)CO)C[C@H]1C	i
CSc1ccccc1NC(=O)CSc1nnnn1-c1ccccc1C	i
O=C1C(=O)N(Cc2ccco2)C(c2ccccc2)C1C(=O)c1cccs1 (stereo not drawn)	i
Cc1nn(C)c(C)c1NC(=O)CSc1nnc(-c2cccc(Br)c2)n1-c1ccccc1	i

Remaining list, next part.
SMILES	ID4 binder
CCn1c(SCC(=O)Nc2ccc(Cl)c(Cl)c2)nnc1-c1cc2cccc(OC)c2o1	i
COc1cccc(NC(=O)CN(C)S(=O)(=O)c2ccc3ccccc3c2)c1	i
O=C(C[C@H]1CC[C@H](NC(=O)CCN2CCCCC2)[C@@H](CO)O1)Nc1nccs1	i
Cc1cccc(CN(C)C[C@H]2OCc3cn(nn3)CCCC(=O)N([C@H](C)CO)C[C@@H]2C)c1	i
CCC(=O)N[C@H]1CC[C@H](CC(=O)NCC2CCCCC2)O[C@H]1CO	i
O=C(O)C1C2C=CC(C2)C1C(=O)N1CCc2c([nH]c3ccccc23)C1C(F)(F)F (stereo not drawn)	i
CC(Oc1ccc(Br)cc1)C(=O)NCc1cccnc1 (stereo not drawn)	i
CCc1ccc(CCC(=O)Nc2ccc(C(=O)O)cc2)o1	i
CC(NS(=O)(=O)c1ccc(Cl)cc1)C(=O)Nc1cccc(Br)c1 (stereo not drawn)	i
O=C(CCN1CCCCC1)N[C@H]1C=C[C@H](CC(=O)N2CCC(Cc3ccccc3)CC2)O[C@H]1CO	i
COc1ccccc1NC(=O)N[C@H]1C=C[C@H](CC(=O)N[C@@H](C)c2ccccc2)O[C@@H]1CO	i
COc1ccccc1-c1cnc2c(c1)C(=O)N([C@H](C)CO)C[C@H](C)[C@H](CN(C)Cc1cccnc1)O2	i

Next compounds follow:
SMILES	ID4 binder
NC(=O)[C@@H]1[C@H]2C(=O)O[C@H](c3ccccc3)[C@H](c3ccccc3)N2[C@H](c2ccc(O)cc2)[C@@]12C(=O)Nc1ccc(C#CC3(O)CCCCCC3)cc12	i
CC1CCC2(CC1)Oc1ccccc1C1CC(c3ccco3)=NN12 (stereo not drawn)	i
COCCNC(=O)C[C@@H]1C[C@@H]2c3cc(N(C)C)ccc3O[C@@H]2[C@H](CO)O1	i
O=C(C[C@@H]1C=C[C@@H](NC(=O)Nc2cc(F)ccc2F)[C@@H](CO)O1)NCCCN1CCOCC1	i
C/C=C/c1ccc2c(c1)O[C@@H](CN(C)C(=O)NCCC)[C@H](C)CN([C@H](C)CO)S2(=O)=O	i
COc1ccc(C(=O)CSc2nnc(-c3ccccc3)n2-c2ccccc2)cc1	i
Nc1nc(SCC(=O)NCC2CCCO2)[nH]c(=O)c1-c1ccccc1 (stereo not drawn)	i
CC(=O)Oc1ccc(NC(=O)COc2cccc(C)c2C)c(C(=O)O)c1	i
CCCNC(=O)N(C)C[C@@H]1Oc2cc(Br)ccc2S(=O)(=O)N([C@H](C)CO)C[C@@H]1C	i
COc1ccc(-c2csc(N3N=C(C)C(C(c4ccc(Cl)cc4)C(C#N)C(N)=O)C3=O)n2)cc1 (stereo not drawn)	i
CCC(C)c1ccc(NC(=O)CSc2nc3ncccc3[nH]2)cc1 (stereo not drawn)	i
Cn1c(SCC(=O)Nc2ccc3c(c2)oc2ccccc23)nc2ccccc2c1=O	i
